# High-throughput results: PubChem BioAssay, several laboratories
# HSV augment: increases HSV replication in cells; 0.005% of 220,000 active; HSV replication augmentation in cells, fold increase; AID 1956; maximum fold increase;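 active means peak rise of 1.5-fold or more in the series; tested in PC3 cells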;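 further: first round at 10 µM; read as green reporter fluorescence; hits show the peak of a series up to 25 µM; 1 = signal of infected wells without compound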
# PKD1 inh: blocks activity of human protein kinase D1. Q15139. PKD1 kinase fluorescence polarization assay. inhibition, %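 (about 10 µM by stock and volumes)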. 0.056% of 200,000 active;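 active means inhibition of 50% or more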;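 further: controls were vehicle for no effect and a reference inhibitor for full effect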
# INS promoter inh: TRM-6 insulin promoter activity inhibition; 0.9% of 130,000 active; TRM-6 cells (human fetal islet line), insulin promoter-eGFP reporter, imaging; reporter expression induced with tamoxifen; inhibition, % at 2 µM;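 active means inhibition above the mean plus 3 SD, with well images judged a real hit on visual review, cut at about 60% in these data, passing the limit was not always enough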
# GALR2 agonist: activates the human galanin receptor 2. O43603. GALR2-expressing cells, agonist activation read-out. activation, %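 (tested at 5 µM)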. 0.48% of 140,000 active. AID 803;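 active means above mean plus 3 SD of all compounds, about 5% in these data, not always enough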;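 further: 0% = vehicle buffer wells and 100% = reference agonist at full effect; tested in CHO reporter cells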
# Target sequence (O43603 whole entry, looked up): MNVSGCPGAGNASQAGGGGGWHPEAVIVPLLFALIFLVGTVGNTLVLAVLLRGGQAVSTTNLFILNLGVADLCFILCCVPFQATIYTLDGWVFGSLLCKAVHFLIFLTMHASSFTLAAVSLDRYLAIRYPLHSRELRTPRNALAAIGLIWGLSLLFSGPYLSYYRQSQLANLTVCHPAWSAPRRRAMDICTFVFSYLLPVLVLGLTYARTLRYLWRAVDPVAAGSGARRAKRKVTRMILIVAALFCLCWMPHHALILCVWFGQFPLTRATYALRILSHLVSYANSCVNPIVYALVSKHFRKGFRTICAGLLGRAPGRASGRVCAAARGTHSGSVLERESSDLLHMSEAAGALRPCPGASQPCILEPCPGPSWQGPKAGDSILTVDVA
# RGS16-Gao: modulates binding between human RGS16 and Galphao | O15492+P09471 | bead-based flow cytometry RGS16-Galphao binding, fluorescence; actives lie on both sides | binding response (% of control), % at 10 µM | 0.38% of 220,000 active;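 active means below 25% or above 175%, edge rows of some plates excepted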;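 further: Galphao activated by GDP with aluminum fluoride before binding; 100% = wells without compound and 0% = beads without RGS; some results beyond the cut were filed as inactive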
# Target sequence (O15492 whole entry, looked up): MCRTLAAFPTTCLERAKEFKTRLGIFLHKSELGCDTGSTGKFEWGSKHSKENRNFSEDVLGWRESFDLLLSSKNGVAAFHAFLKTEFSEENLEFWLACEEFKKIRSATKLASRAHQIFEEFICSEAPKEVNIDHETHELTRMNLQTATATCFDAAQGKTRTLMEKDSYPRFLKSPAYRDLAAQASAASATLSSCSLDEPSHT
# Target sequence (P09471 whole entry, looked up): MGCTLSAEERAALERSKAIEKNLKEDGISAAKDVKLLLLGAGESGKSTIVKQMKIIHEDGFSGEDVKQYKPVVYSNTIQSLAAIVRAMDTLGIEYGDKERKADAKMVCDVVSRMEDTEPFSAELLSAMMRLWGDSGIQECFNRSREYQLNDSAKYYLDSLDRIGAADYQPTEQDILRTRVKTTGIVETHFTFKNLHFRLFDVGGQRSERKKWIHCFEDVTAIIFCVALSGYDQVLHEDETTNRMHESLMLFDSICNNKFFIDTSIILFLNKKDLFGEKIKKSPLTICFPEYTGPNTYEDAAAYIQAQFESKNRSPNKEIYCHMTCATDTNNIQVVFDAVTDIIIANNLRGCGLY
# INS promoter inh cell count: second read-out of INS promoter inh, no call of its own (marks repeat the call); normalized cell count, %; measured here: cell count, toxicity; reference of the scale not given here;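 cells exposed to compound for 48 h; stained nuclei by imaging scaled within each plate; lower means fewer cells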
# HSV augment primary fold: recorded beside HSV augment, whose call it bears; fold increase; compound at 10 µM; measured here: primary screen fold increase 10 uM; tested in PC3 cells;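 GFP signal in the first replicate; 1 = infected wells without compound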
# The depositor's hits bear a star; i = inactive; nt = not tested or not shown; & = joins results of further samples.
item	Structure	HSV augment primary fold	PKD1 inh	RGS16-Gao	GALR2 agonist
1	O=C(Nc1cnccn1)c1cccs1	1.01	9.9	103.2	-1.8
2	C/C(Cc1ccccc1)=N\NC(=O)C1CCCCC1	0.94	-7.8	98.5	-0.2
3	COC(=O)c1ccccc1NC(=S)NC(NC(=O)c1ccccc1[N+](=O)[O-])C(Cl)(Cl)Cl (stereo unspecified)	0.94	-1.1	101.0	0.2
4	CCCc1nc(N2CCN(S(=O)(=O)c3ccc(Cl)cc3)CC2)c2c(C)c(C)sc2n1	0.92	-3.2	101.1	nt
5	O=C(CCCN1C(=O)/C(=C/c2ccccc2)SC1=S)Nc1ccccc1O	0.98	-2.8	109.6	nt
6	Cn1ncc(Cl)c(Oc2ccc(C(C)(C)C)cc2)c1=O	0.94	-5.6	104.9	0.1
7	COc1ccc(Cl)cc1CSc1ncn[nH]1	0.97	nt	95.9	nt
8	O=C(Nc1ccc(COc2ccccc2)cc1)c1cccc([N+](=O)[O-])c1	0.85	9.5	112.1	-0.3
9	CC(C)c1nc(SCC(=O)N2c3ccccc3CC2C)c2ccccc2n1 (stereo unspecified)	0.72	4.3	97.7	-1.8
10	O=S(=O)(Nc1ccc(N2CCOCC2)nn1)c1ccccc1	0.94	-4.8	102.0	-0.6

item	INS promoter inh cell count	HSV augment	INS promoter inh
1	83.5	i	18.8
2	100.3	i	-6.7
3	83.1	i	-41.9
4	nt	i	nt
5	nt	i	nt
6	nt	i	nt
7	nt	i	nt
8	123.5	i	31.2
9	nt	i	nt
10	144.9	i	0.0

# Next part:
item	Structure	HSV augment primary fold	PKD1 inh	RGS16-Gao	GALR2 agonist
11	COc1ccc(C)cc1-n1c(C)cc(C=O)c1C	1.03	3.7	102.8	nt
12	O=C(CO/N=C/c1ccccc1OC(F)F)NC1CCCCC1	1.04	-3.0	99.8	-2.4
13	Cc1nc(SCCC(=O)O)c2ccccc2n1	0.98	4.6	99.0	-0.7
14	CC(Cc1cccs1)NC(=O)c1cccs1 (stereo unspecified)	0.67	-2.4	98.0	nt
15	Cc1ccc(C)c(NC(=O)C2C(c3ccccc3)C2(Cl)Cl)c1 (stereo unspecified)	1.01	-4.2	106.7	-4.9
16	Cc1ncc([N+](=O)[O-])n1CC(=O)N/N=C/c1ccccc1F	1.03	8.1	100.4	nt
17	CC1CN(c2nc3ccccc3cc2-c2ccccc2)CC(C)O1 (stereo unspecified)	1	-6.6	103.6	nt
18	Cc1cc(C)nc(N2CCC(C(=O)NCC3CCCCC3)CC2)n1	1.15	0.2	112.3	1.5
19	O=C(Cn1nnc2ccccc21)OCC(=O)c1ccc(F)cc1	1	nt	104.9	nt
20	C/C=C\C=C/C(=O)Nc1cccc(C2=NOC3(C2)C[C@@H](C(N)=O)N(C(=O)CCCCC)C3)c1 (stereo partly specified)	0.9	nt	86.0	nt

item	INS promoter inh cell count	HSV augment	INS promoter inh
11	75.6	i	-50.0
12	105.2	i	30.0
13	nt	i	nt
14	nt	i	nt
15	nt	i	nt
16	nt	i	nt
17	95.3	i	7.7
18	nt	i	nt
19	nt	i	nt
20	nt	i	nt

# The list continues:
item	Structure	HSV augment primary fold	PKD1 inh	RGS16-Gao	GALR2 agonist
21	CCn1c(Cc2ccccc2)nnc1SCC(=O)Nc1nc2ccccc2s1	1.03	-1.6	102.8	0.9
22	Cc1ccc(C)c(NC2=C(Cl)C(=O)OC2OC(=O)c2ccco2)c1 (stereo unspecified)	1.01	-3.0	122.9	-2.2
23	CCCc1noc(-c2ccc(-c3ccccc3)cc2)n1	0.99	1.5	105.8	-4.2
24	COc1ccc(-n2c(C)cc(C(=O)CSc3nn4c(=O)c(C(C)(C)C)nnc4s3)c2C)cc1	0.83	-9.1	109.8	-0.3
25	C#CCOc1ccc(/C=N/NC(=O)c2cccnc2)cc1OCC	0.94	0.6	98.8	nt
26	COc1ccc(CCNCC(=O)N2C(C)CCCC2C)cc1OC (stereo unspecified)	1	-2.0	97.5	nt
27	CCCC(=O)NCCc1cc2c(C)ccc(C)c2[nH]c1=O	0.89	3.0	89.3	-1.4
28	COC(=O)c1ccc(C(=O)NC(=S)Nc2nc3c(s2)CCCC3)cc1	0.85	1.3	100.2	-1.5
29	CC1(c2ccccc2)NC(=O)N(CC(=O)NCCC2=CCCCC2)C1=O (stereo unspecified)	0.98	3.0	97.1	-0.9
30	COC(=O)C(C)Sc1ccc2nnc(-c3cccc(F)c3)n2n1 (stereo unspecified)	0.98	-6.8	99.9	0.2

item	INS promoter inh cell count	HSV augment	INS promoter inh
21	79.0	i	-188.2
22	96.8	i	-22.6
23	nt	i	nt
24	120.6	i	54.5
25	nt	i	nt
26	60.5	i	6.7
27	nt	i	nt
28	nt	i	nt
29	136.8	i	11.6
30	nt	i	nt

# Carrying on:
item	Structure	HSV augment primary fold	PKD1 inh	RGS16-Gao	GALR2 agonist
31	c1ccc(-c2cnn3nnnc3n2)cc1	0.91	-4.6	332.6	-2.4
32	CCC(=O)c1c[nH]c(C(=O)NCCCN2CCOCC2)c1	1.02	-13.2	109.3	-1.8
33	Cc1ccc(NC(=O)CN2C(=O)N/C(=C/c3ccc(C)s3)C2=O)cc1	0.93	2.8	98.8	-0.8
34	Cc1ccc2cc(CN(CCN3CCOCC3)Cc3nnnn3Cc3ccco3)c(=O)[nH]c2c1C	1.11	-7.3	96.2	-1.2
35	COc1ccccc1C(=O)NNC(=O)CCCN1C(=O)/C(=C/c2cccs2)SC1=S	1.05	-5.3	129.1	-0.5
36	O=C1CSC(c2ccccc2[N+](=O)[O-])N1c1cccc(F)c1 (stereo unspecified)	0.96	-4.0	99.9	nt
37	C1CC1Cc1noc(CN2CCN(C3C4CC5CC(C4)CC3C5)CC2)n1 (stereo unspecified)	0.93	-0.8	110.5	nt
38	Cc1ccc2cc(NC(=O)Cc3ccccc3)ccc2n1	1.33	nt	104.6	nt
39	NC(=O)C1CCN(c2nc(-c3ccc(Br)cc3)cs2)CC1	0.93	-10.3	97.1	-0.7
40	NC(=O)c1sc2nnc(-c3ccccc3)c(-c3ccccc3)c2c1N	1.31	nt	96.7	nt

item	INS promoter inh cell count	HSV augment	INS promoter inh
31	74.7	i	41.9
32	117.2	i	18.5
33	107.7	i	-58.1
34	nt	i	nt
35	nt	i	nt
36	nt	i	nt
37	35.0	i	-13.0
38	nt	i	nt
39	122.7	i	14.3
40	nt	i	nt

# Next section:
item	Structure	HSV augment primary fold	PKD1 inh	RGS16-Gao	GALR2 agonist
41	COc1ccc(CCC(=O)NC(C)C)cc1	1	3.0	100.0	-0.5
42	CCn1cc(CNC(=O)C2C3CCC(C3)C2C(=O)O)cn1 (stereo unspecified)	nt	-6.2	100.1	-1.6
43	CC(=O)Nc1cccc(C(=O)NC(C)c2ccc(S(N)(=O)=O)cc2)c1 (stereo unspecified)	1.01	-5.0	105.7	-2.6
44	O=C(NCCc1ccccc1)c1ccccc1NC(=O)C1CCCCC1C(=O)O (stereo unspecified)	1.1	-2.3	98.6	nt
45	O=C(O)c1cc(N2C(=O)C3C4C=CC(C4)C3C2=O)ccc1N1CCOCC1 (stereo unspecified)	1.17	-2.7	106.7	nt
46	Cc1ccc(C)c(-n2c(N)c(C(N)=O)sc2=S)c1	0.89	-2.1	106.5	-2.0
47	CC(C)(C)n1nnnc1C(c1cccs1)N(Cc1cccnc1)Cc1ccccc1Cl (stereo unspecified)	0.95	-3.4	101.5	0.2
48	O=C(NCCSCc1ccc(Cl)cc1Cl)c1ccc(CN2CCOCC2)cc1	1.08	11.2	-10.2*	-1.6
49	Cc1nn(CCCNC(=O)C2CCCO2)cc1Br (stereo unspecified)	0.9	-0.5	101.6	-1.7
50	CC(C)Cc1cc(C(=O)Nc2sc3c(c2C#N)CCCC3)no1	0.98	3.0	96.7	-1.4

item	INS promoter inh cell count	HSV augment	INS promoter inh
41	82.1	i	-10.0
42	nt	nt	nt
43	113.2	i	9.4
44	nt	i	nt
45	nt	i	nt
46	109.0	i	33.3
47	64.3	i	28.9
48	133.5	i	6.7
49	100.2	i	-8.3
50	nt	i	nt

# The list goes on:
item	Structure	HSV augment primary fold	PKD1 inh	RGS16-Gao	GALR2 agonist
51	COc1ccc(S(=O)(=O)N2CC3CCCN3c3ccc(C(F)(F)F)cc32)cc1 (stereo unspecified)	0.91	2.7	99.0	-2.6
52	Cc1ccc(CNC(=O)CSc2ncccn2)cc1	0.95	1.9	106.6	-0.3
53	Clc1ccc(Nc2ncnc3ccc(Br)cc23)cc1	0.9	7.0	104.7	-0.9
54	CCCN1C(=O)/C(=C/c2ccc(C)o2)NC1=S	1.04	-3.4	85.2	nt
55	CCOC(=O)c1c(C)oc2c1c(CN1CCN(CCO)CC1)c(O)c1ccccc12	0.86	-5.2	107.1	nt
56	CC(/C=N/NC(=O)CCn1nnc2ccccc21)=C\c1ccccc1	0.85	1.1	96.1	-1.9
57	COc1ccc(OC)c(Nc2ncnc3c2cnn3-c2ccccc2)c1	0.73	3.8	94.0	-0.9
58	Fc1ccc([C@@H]2CCNC[C@H]2COc2ccc3c(c2)OCO3)cc1	0.61&0.8	nt	106.8	nt
59	COc1ccc(CCn2c(-c3ccncc3)n[nH]c2=S)cc1OC	0.89	-4.5	98.8	nt
60	CN(C)CCNC(=O)c1cc2ccccc2oc1=O	0.86	-8.1	104.5	-1.6

item	INS promoter inh cell count	HSV augment	INS promoter inh
51	78.1	i	-3.6
52	120.0	i	-14.3
53	136.6	i	-219.3
54	nt	i	nt
55	115.9	i	18.2
56	66.1	i	-26.5
57	103.1	i	11.8
58	nt	i	nt
59	128.2	i	-36.8
60	131.8	i	15.4

# Remaining list, next part.
item	Structure	HSV augment primary fold	PKD1 inh	RGS16-Gao	GALR2 agonist
61	CCOc1ccc(NC(=O)CCN2C(=S)NC(C)(C)CC2C)cc1 (stereo unspecified)	0.99	3.7	94.7	nt
62	Cc1cc(Nc2ccc(F)c(Cl)c2)n2ncnc2n1	0.94	-8.9	89.4	-1.4
63	COc1ccc(-c2nc(-c3cccc(C)c3)nc(Cl)c2C#N)cc1	1.06	-5.5	99.8	-1.3
64	COc1cc(C(=O)N2CCN(c3ccccc3)CC2)c([N+](=O)[O-])cc1OC	0.96	8.8	105.0	nt
65	Nc1nc(Cl)nc2c1ncn2[C@@H]1O[C@H](CO)[C@@H](O)[C@H]1O	0.66	32.4	99.0	0.0
66	Cc1cc(C(=O)OCC(=O)c2cccs2)c2ccccc2n1	0.97	-0.7	106.5	nt
67	CC(C)(C)OC(=O)N/N=C/c1cccn1-c1ccc([N+](=O)[O-])cc1	0.86	nt	98.5	nt
68	COc1ccccc1C(=O)Nc1nc2cc3c(cc2s1)OCCO3	0.86	1.9	98.8	nt

item	INS promoter inh cell count	HSV augment	INS promoter inh
61	87.8	i	-33.3
62	209.7	i	-60.0
63	155.6	i	-127.3
64	nt	i	nt
65	94.4	i	38.1
66	nt	i	nt
67	nt	i	nt
68	nt	i	nt

# Among those listed so far, eight contain two or more sulfur atoms.
item	Structure	HSV augment primary fold	PKD1 inh	RGS16-Gao	GALR2 agonist
4	CCCc1nc(N2CCN(S(=O)(=O)c3ccc(Cl)cc3)CC2)c2c(C)c(C)sc2n1	0.92	-3.2	101.1	nt
5	O=C(CCCN1C(=O)/C(=C/c2ccccc2)SC1=S)Nc1ccccc1O	0.98	-2.8	109.6	nt
14	CC(Cc1cccs1)NC(=O)c1cccs1 (stereo unspecified)	0.67	-2.4	98.0	nt
21	CCn1c(Cc2ccccc2)nnc1SCC(=O)Nc1nc2ccccc2s1	1.03	-1.6	102.8	0.9
24	COc1ccc(-n2c(C)cc(C(=O)CSc3nn4c(=O)c(C(C)(C)C)nnc4s3)c2C)cc1	0.83	-9.1	109.8	-0.3
28	COC(=O)c1ccc(C(=O)NC(=S)Nc2nc3c(s2)CCCC3)cc1	0.85	1.3	100.2	-1.5
35	COc1ccccc1C(=O)NNC(=O)CCCN1C(=O)/C(=C/c2cccs2)SC1=S	1.05	-5.3	129.1	-0.5
46	Cc1ccc(C)c(-n2c(N)c(C(N)=O)sc2=S)c1	0.89	-2.1	106.5	-2.0

item	INS promoter inh cell count	HSV augment	INS promoter inh
4	nt	i	nt
5	nt	i	nt
14	nt	i	nt
21	79.0	i	-188.2
24	120.6	i	54.5
28	nt	i	nt
35	nt	i	nt
46	109.0	i	33.3

# Hits appear at their usual frequency; 1.3% or so of the library scored in one or more.
